Prx2 Sm inh: inhibitors of Schistosoma mansoni peroxiredoxin 2. S. mansoni Prx2 activity coupled to TGR/GSH (TGR is thioredoxin glutathione reductase), NADPH fluorescence loss, qHTS; some inactives read as strong as hits. Potency, µM. 65,000 tested, 0.07% active; active means full or partial inhibition curve with a strong effect at the top dose; inconclusive means weaker partial or single-point curve; inactive means no accepted curve; note: series up to 57 µM; many of its hits are not listed in these tables
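Coupled assay in which S. mansoni TGR passes NADPH reducing equivalents via glutathione to Prx2, which reduces H2O2. Compounds were preincubated 15 min at room temperature with 25 nM TGR/50 nM Prx2 mix. Kinetic NADPH fluorescence loss (ex 365/em 450 nm) was monitored.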
LT uptake inh: inhibitors of anthrax lethal toxin internalization; Cells, anthrax lethal toxin internalization, FRET ratio (460/530); Potency, µM (top dose mostly 40 µM), inactives show top-dose activity change, negative = inhibition, actives largely listed as inhibitors; 70,000 tested, 0.67% active; active = well fitted falling ratio curve with the 530 nm signal flat; inconclusive = other ratio curves, or a change in one channel alone; inactive = flat curves in the ratio and both channels; the % refers to the ratio; note: % is set by controls: 0 for no effect and ±100 for the full control effect; nearly all actives have a fitted effect of over 50% in size; tested in ME-180 cells; beta-lactamase reporter
* = called active by the depositor; ? = inconclusive; . = no result given; & = joins results of further samples; [ ] = remark or other dose. Potency is the fitted concentration of half-maximal effect. An excerpt; count on the stated rates, not on these rows.

SMILES	Prx2 Sm inh	LT uptake inh
C[C@@H]1OC2C3=C(C(=O)[C@H]4O[C@@H]4[C@H]3O)[C@@H]1[C@H]1[C@H](C)OC=C3[C@H](O)[C@H]4O[C@H]4/C(=N\OCc4ccccc4)[C@@]321	.	?
CC(OC(=O)c1cc2sccc2n1C)C(=O)NCc1cccs1 (stereo not given)	>57	-1.2%
CS(=O)(=O)N(CCc1ccccc1)CC(=O)N1CCc2ccccc2C1	>57	9.4%
Nc1nc(CSc2nnc(-c3cccc(F)c3)n2-c2ccccc2)nc(N2CCOCC2)n1	>57	-1.4%
CCCCC#CC1C=CC(Oc2cc(OC)c(OC)c(OC)c2)C(COC(=O)OCC)O1 (stereo not given)	.	-7.0%[8 µM]
O=C1c2ccccc2CC1Sc1nnc(-c2ccccn2)o1 (stereo not given)	>57	19.4%
O=C(NC1=NCCS1)C1CC(=O)N(c2ccccc2)C1 (stereo not given)	>57	3.6%
Cc1ccc(C)c(-n2c(SCC(=O)N3CCCC3)nnc2-c2ccccn2)c1	>57	6.7%
O=C(NCCN1CCN(C(=O)NC2CCCCC2)CC1)NC1CCCCC1	>57	-4.3%
COCCNC(=O)c1ccc(CS(=O)(=O)c2ccc(Cl)cc2)o1	>57	-3.5%
FC(F)(F)c1cc(-c2ccco2)nc(-n2cnc3ccccc32)n1	>57	-4.1%
Cc1ccnc(-n2c(C)nc3ccccc3c2=O)c1	.	-0.6%
CCOC(=O)Cc1nnc(NC(=O)C(CC)Sc2nc(C)cc(=O)[nH]2)s1 (stereo not given)	>57	-14.7%
CC(=O)c1cc(C#N)c(SCCC(C)C)nc1C	>57	-7.0%
CC1=C(C(=O)N(C)C)C(c2ccc(Cl)c(Cl)c2)NC(=O)N1 (stereo not given)	>57	?
Cc1[nH]c2ccc(-c3nnc(SCC(=O)c4ccc(F)cc4)o3)cc2c1C	>57	-16.5%
O=C1CSC(c2ccccc2)N1CC12CC3CC(CC(O)(C3)C1)C2 (stereo not given)	>57	13.8%
Cc1cnc(CNc2cc(-c3ccc4c(c3)OCO4)ncn2)cn1	>57	27.4%
Clc1ccc(-c2nnc(SCc3ccon3)o2)c(Cl)c1	>57	-2.4%
O=C(CSc1nc2c(c(=O)n1-c1ccc(Cl)cc1)SCC2)NCc1ccco1	>57	-2.9%
CCOC(=O)c1cc2sccc2n1Cc1ccc(C#N)cc1	>57	?
CCC1CCCCN1C(=O)CSc1nnc(-c2ccc(Cl)cc2)o1 (stereo not given)	>57	-12.2%
Cc1c2c(nc3c(C(=O)NC4CCCCC4C)cnn13)CCCC2 (stereo not given)	>57	-10.9%
COC(=O)[C@@]1(C)C[C@@H]1[C@@H](NC(=O)[C@@]1(C)C[C@@H]1[C@@H](NC(=O)[C@@]1(C)C[C@@H]1[C@@H](NC(=O)[C@@]1(C)C[C@@H]1[C@@H](NC(=O)OCc1ccccc1)c1ccccc1)c1ccccc1)c1ccccc1)c1ccccc1	.	4.0%
Cc1nc2cnc(N(C)C)nc2n(CCc2ccccc2)c1=O	>57	?

7 consecutive compounds from above, quoted:
SMILES	Prx2 Sm inh	LT uptake inh
Cc1[nH]c2ccc(-c3nnc(SCC(=O)c4ccc(F)cc4)o3)cc2c1C	>57	-16.5%
O=C1CSC(c2ccccc2)N1CC12CC3CC(CC(O)(C3)C1)C2 (stereo not given)	>57	13.8%
Cc1cnc(CNc2cc(-c3ccc4c(c3)OCO4)ncn2)cn1	>57	27.4%
Clc1ccc(-c2nnc(SCc3ccon3)o2)c(Cl)c1	>57	-2.4%
O=C(CSc1nc2c(c(=O)n1-c1ccc(Cl)cc1)SCC2)NCc1ccco1	>57	-2.9%
CCOC(=O)c1cc2sccc2n1Cc1ccc(C#N)cc1	>57	?
CCC1CCCCN1C(=O)CSc1nnc(-c2ccc(Cl)cc2)o1 (stereo not given)	>57	-12.2%

Other compounds.
SMILES	Prx2 Sm inh	LT uptake inh
COc1ccccc1-n1cnnc1SCC(=O)Nc1ncc(Cl)cc1Cl	>57	8.1%
CCOC(=O)C1C(=O)CC(C)(O)C(C(=O)OCC)C1c1cccc(OC)c1 (stereo not given)	.	-10.4%
Cc1cc(C)n(-c2nc3c(c(=O)[nH]c(=O)n3C)n2C)n1	>57	-9.6%
COc1ccccc1CNc1ccnc(-c2ccccc2OC)n1	>11.4	-15.1%
COc1cc(NC(=O)CSc2nc3ccccc3c(=O)n2C)ccc1NC(=O)c1ccco1	>57	?
CCC(C)NC(=O)c1cc(-c2ccc(OC)cc2)on1 (stereo not given)	>57	5.0%
Cc1occc1C(=O)NC(C)c1ccc2c(c1)OCO2 (stereo not given)	>57	3.4%
Clc1ccc2c(c1)C(N1CCNCC1)=Nc1ccccc1O2	>57&>57	?
COc1cc2cc(CN(Cc3nnnn3Cc3ccco3)C3CCCCC3)c(=O)[nH]c2cc1OC	>57	-12.8%
C=CCn1c(SCC(=O)NCc2ccc3c(c2)OCO3)nnc1C1COc2ccccc2O1 (stereo not given)	>57	-5.5%
COc1ccccc1NS(=O)(=O)c1ccc(NC(C)=O)cc1	>57	-9.7%
Cc1nnc(SCC(=O)Nc2ccc3c(c2)OCO3)o1	>57	2.4%
CCOC(=O)CSc1nnc(N)s1	>57	?
COC(=O)[C@@]1(Cc2ccc(OC)cc2)[C@H]2c3cc(C(=O)N4CCCC4)n(CCCNc4ncc(C(F)(F)F)cc4Cl)c3C[C@H]2CN1C(=O)c1ccccc1	>57	?
Cc1nc(NCc2ccco2)c2oc3ccccc3c2n1	>57	9.3%
Cc1cc(=O)[nH]c2c1cnn2Cc1ccccc1	>57	?
CCOC(=O)N1CCC(N2C(=O)c3ccccc3C2Nc2cc(Cl)c(OC)cc2OC)CC1 (stereo not given)	>57	-11.3%
O=C1CCC(=O)N1OCCCCOc1ccccc1	>57	-6.4%
CCCCC(NC(C)=O)c1nc2ccccc2n1CCC (stereo not given)	>57	?
CCOc1ccccc1Oc1c(C)oc2c(CN3CCN(C)CC3)c(O)ccc2c1=O	>57	-0.2%
CC(C)(O)c1nnn(-c2ccccc2)c1C(F)(F)F	>57	-15.4%
CC(=O)c1cccc(NC(=O)c2cc(C(C)C)on2)c1	>57	-1.3%
O=S(=O)(Cc1ccc(Cl)cc1)N1CCCC1	>57	-2.9%
Cc1c(Cl)cc(C(C)(C)C)c(O)c1Cc1c(C)c(Cl)cc(C(C)(C)C)c1O	>57	?
Cc1cc(C)nc(NC(=O)c2c(-c3c(Cl)cccc3Cl)noc2C)n1	>57	-4.0%
Going on with the list.
SMILES	Prx2 Sm inh	LT uptake inh
CCCCCOC(=O)c1ccccc1C(=O)OCCCCC	.	-22.7%
OCCCNc1ncnc2[nH]ncc12	>57	-0.5%[8 µM]
CN(C)C(=O)N1CCC(C(=O)NCc2ccc(F)cc2)CC1	>57	3.6%
CCC(=O)N1CCN(c2ccc(Cl)cc2NC(=O)c2ccc3c(c2)OCCO3)CC1	>57	7.9%
CCOc1ccc(OCC)c(C2C(C#N)=C(N)N(c3cccnc3)C3=C2C(=O)CC(C)(C)C3)c1 (stereo not given)	>57	2.6%
CC1CCN(C(=O)CSc2nnc(Cn3c(=O)sc4ccccc43)n2C)CC1	>57	2.0%
COc1ccc(CNC2CCCCC2C)c(OC)c1 (stereo not given)	>57	-9.2%
O=C(O)c1ccc(C(=O)O)c(C(=O)Nc2ccc3c(c2)Cc2ccccc2-3)c1	>57	-5.6%[8 µM]
CN(C(=O)c1ccc2c(c1)OCO2)C1(C(=O)NC2CCCC2)CCCCC1	>57	0.4%
Cc1nc2nc(C)c(CCC(=O)Nc3ccc4c(c3)OCO4)c(C)n2n1	>57	-4.2%
COc1ccccc1N(CC(=O)NC1CCCC1)C(=O)c1csnn1	>57	-3.9%
CCOC(=O)c1ccc(NC(=O)CSC2=NC(=O)C(CC)C(=O)N2)cc1 (stereo not given)	>57	2.8%
Cc1noc(C)c1CSc1nnc(-c2ccncc2)n1-c1ccc(Cl)c(Cl)c1	>57	-10.7%
Cc1cc2ccccc2n1CCNC(=O)COc1ccccc1	>57	8.2%
Cc1cc(NC(=O)c2cc(-c3cccc(Cl)c3)on2)no1	>57	-2.3%
COc1cc(CN(C)CC(=O)c2[nH]c(C)c(C(C)=O)c2C)ccc1OC(F)F	>57	-12.2%
CCCCCc1c(C)nc(N2CCc3ccccc32)[nH]c1=O	>57	?
O=C(NCCCn1ccnc1)NC(C(F)(F)F)C(F)(F)F	>57	-4.2%
Cc1ccc(N2CC(C(N)=O)CC2=O)cc1C (stereo not given)	>57	-7.8%
CCc1c2c(nc3ccc(OC)cc13)OC(CC)C2 (stereo not given)	>57	5.3%
CCOC(=O)c1c(C)[nH]c(C(=O)Cn2nnc(-c3ccc(Cl)cc3)n2)c1C	>57	-8.6%
CC(C)(C)c1ccc(S(=O)(=O)NCCc2ccncc2)cc1	>57	-8.2%
CN1CCN(c2ccc(NC(=O)Cc3ccccc3)cc2)CC1	>57	?
COC(=O)c1cccc(Oc2nc3c(c(=O)n(C)c(=O)n3C)n2Cc2ccc(C)cc2)c1	>57	3.3%
CC(=O)c1ccc2c(c1)Nc1ccccc1S2	>57	-10.8%
Following part:
SMILES	Prx2 Sm inh	LT uptake inh
CNc1nn(-c2cccc(Cl)c2)nc1N	>57	-4.2%
CC(=O)N(C(C)=O)c1cccc2c(N(C(C)=O)C(C)=O)cccc12	.	-1.2%
COc1cc(NC2c3ncccc3C(=O)N2Cc2ccco2)cc(OC)c1 (stereo not given)	>57	-4.2%
CC(C)COC(=O)c1nnsc1NC(=O)Nc1ccccc1	>57	-27.4%
Cc1ccc(NC2=NCC(=O)N2Cc2ccc3c(c2)OCO3)c(C)c1	>57	?
O=C1c2ccccc2C(=O)N1CNc1ccccc1	>57	-12.2%
Cc1cccc(NC(=O)c2cnc3sccn3c2=O)n1	>57	-9.0%
CCOC(=O)Cn1c(=O)oc2cc(S(=O)(=O)N3CCC(N4CCCCC4)CC3)ccc21	>57	6.2%
COc1cccc(-c2nc3cc(C)ccc3o2)c1	>57	-11.9%
Nc1ccc(Cl)cc1	.	-11.1%
N=c1ccn(Cc2cccc(Cl)c2)cc1	>57	2.6%
Cc1ccccc1N1CCN(C(=O)CN2C(=O)c3ccccc3C2=O)CC1	.	3.3%
Cc1noc(C)c1CSc1nnc(-c2cc(Cl)ccc2Cl)n1N	>57	-6.5%
c1ccc(Cn2nnc3c(Nc4ccc5c(c4)OCO5)nc(C4CC4)nc32)cc1	>57	8.4%
CCn1c(SCc2ccc(C)cc2)nnc1-c1cnccn1	>57	-7.9%
O=C(CSc1nnc(-c2cccnc2)n1Cc1ccco1)N1c2ccccc2Sc2ccccc21	>57	15.8µM*
COc1cccc(CNC(=O)CN(C)S(=O)(=O)c2cnc[nH]2)c1	>57	-3.9%
CCn1ncc(Cl)c1C(=O)Nc1ccncc1	>57	-23.6%
N#CC1=C2SCCN2C(=O)C(C#N)C12CCCCC2 (stereo not given)	>57	-0.5%
COc1ccc2c(c1OC)C(=O)N(C(C)C(=O)O)C2=O (stereo not given)	.	-2.1%
CC(C)[C@H](NC(=O)OC(C)(C)C)[C@@H](O)CC(=O)OC(C)(C)C	.	-4.4%[8 µM]
CCOC(=O)C1CCN(/C=C2/C(=O)NC(=O)N(Cc3ccco3)C2=O)CC1	>57	2.5%
COc1cc2c(cc1OC)-c1cc(NC3CCCCC3)nc(=O)n1CC2	>57	13.4%
COc1ccc(C(=O)CSc2nnc(Cn3cnc4ccccc43)o2)cc1	>57	-21.5%
COc1cccc(C(=O)N2CCCC(c3nc(-c4cccs4)no3)C2)c1 (stereo not given)	>57	0.5%
(next part)
SMILES	Prx2 Sm inh	LT uptake inh
COc1ccc(CNC(=O)c2cccc(N3CCCC3=O)c2)cc1	>57	7.0%
CCn1c(=S)sc2c(=O)n(-c3ccccc3)c(SC)nc21	>57	?
CCSc1nc2c(c(=O)n1CC)SC(C)C2 (stereo not given)	>57	22.4%
COc1cc(C2c3[nH]c4ccccc4c3CC3C(=O)N4C(Cc5c([nH]c6ccccc56)C4c4cc(OC)c(OC)c(OC)c4)C(=O)N32)cc(OC)c1OC (stereo not given)	.	-5.3%[8 µM]
CCNc1ncc2nc(-c3ccc(Cl)cc3)c(=O)n(-c3ccc(OC)cc3)c2n1	>57	?
O=C(Nc1ccc2c(c1)OCO2)C1CCN(S(=O)(=O)c2cccc3cccnc23)CC1	>57	-1.9%
NC(=O)NC(Cc1ccccc1)C(=O)NCC1(N2CCCCC2)CCCCC1 (stereo not given)	>57	2.2%
S=c1[nH]c2ccc(Cl)cc2[nH]1	>57	0.7%
O=C(COC(=O)CCOc1ccccc1)NCc1ccco1	>57	2.3%
O=C(CS(=O)CC(=O)N(CC(=O)NC1CCCC1)C1CCCC1)Nc1ccc(F)cc1 (stereo not given)	>57	-22.0%
COc1cccc(N2CCN(C3CC(=O)N(c4ccc(F)c(Cl)c4)C3=O)CC2)c1 (stereo not given)	>57	-2.0%
CC(C)Sc1nc(N2CCOCC2)c2c(c1C#N)CC(C)(C)SC2	>57	-2.2%
CS(=O)(=O)Nc1cccc(-c2nccc(Nc3ccc(F)cc3)n2)c1	>57	-16.4%
COCC(=O)Nc1nc2n(n1)C(c1ccc(OC)cc1)CC(c1ccc(OC)cc1)N2 (stereo not given)	>57	-3.1%
CN1C(=O)N(C)C2(c3ccccc3)N(C)C(=O)NC12c1ccccc1 (stereo not given)	>57	-0.7%
Cc1o[nH]c(=O)c1C[C@@H](N)C(=O)O	>57	-5.5%
COc1ccc(CCn2c(N)c(C(=O)NCc3ccco3)c3nc4ccccc4nc32)cc1OC	>57	.
CCC(=O)N(c1ccc(F)cc1)C1C=CS(=O)(=O)C1 (stereo not given)	>57	2.0%
